Screens: PubChem, Johns Hopkins Ion Channel Center
KCNQ2 block: KCNQ2 potassium channel inhibitors, primary screen, cell-based, CHO-K1, FluxOR thallium flux, B-score (AID 2156). B-score at 10 µM. 20 min; hits give low values; only compounds with negative scores are shown here; some inactives read as strong as hits. O88943. 310,000 compounds, 1.1% hits;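 active = fluorescence ratio B-score at most minus 3 library SDs, with starting brightness B-score within 2 library SDs, cut at about -5.5 in these data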
Target sequence (O88943 whole entry, looked up): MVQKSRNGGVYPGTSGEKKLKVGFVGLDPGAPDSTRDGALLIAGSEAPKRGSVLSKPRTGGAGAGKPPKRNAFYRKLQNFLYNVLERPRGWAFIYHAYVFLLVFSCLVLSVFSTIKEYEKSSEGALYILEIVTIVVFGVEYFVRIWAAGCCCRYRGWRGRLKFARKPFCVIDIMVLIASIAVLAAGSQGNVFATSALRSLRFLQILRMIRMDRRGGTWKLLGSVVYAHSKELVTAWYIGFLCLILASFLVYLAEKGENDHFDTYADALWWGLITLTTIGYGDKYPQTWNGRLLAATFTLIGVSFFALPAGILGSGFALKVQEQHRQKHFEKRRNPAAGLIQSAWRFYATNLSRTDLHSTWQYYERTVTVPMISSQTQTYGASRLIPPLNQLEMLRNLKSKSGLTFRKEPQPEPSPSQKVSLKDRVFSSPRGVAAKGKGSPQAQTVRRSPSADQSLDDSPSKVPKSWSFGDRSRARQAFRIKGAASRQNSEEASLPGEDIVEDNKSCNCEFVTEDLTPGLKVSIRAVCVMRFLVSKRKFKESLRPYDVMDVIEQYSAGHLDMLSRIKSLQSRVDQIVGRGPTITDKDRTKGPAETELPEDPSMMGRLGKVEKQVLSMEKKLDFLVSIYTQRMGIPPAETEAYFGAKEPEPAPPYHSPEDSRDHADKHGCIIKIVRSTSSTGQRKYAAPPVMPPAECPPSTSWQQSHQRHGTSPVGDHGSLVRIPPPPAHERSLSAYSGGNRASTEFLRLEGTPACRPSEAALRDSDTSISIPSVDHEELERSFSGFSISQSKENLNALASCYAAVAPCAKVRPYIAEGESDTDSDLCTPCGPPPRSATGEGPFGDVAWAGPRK
KCNQ2 block baseline: second read-out of KCNQ2 block, no call of its own (marks repeat the call); B-score; measured here: initial fluorescence intensity artifact check;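 brightness before thallium and not channel activity; 0 = typical well and far values either way flag optical interference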
An asterisk follows results filed as active; i = inactive.

SMILES	KCNQ2 block	KCNQ2 block baseline
CC(C)CC(=O)NC(=S)Nc1ccc(S(=O)(=O)N2CCCC2)cc1	i	1.93
O=C(CS(=O)(=O)c1ccccc1)Nc1nnc(Cc2ccccc2)s1	i	0.92
O=C(/C=C1\SC(=O)NC1=O)Nc1ccc(F)cc1	i	-1.44
O=C(Cn1c2ccc(F)cc2c2nc3n(c(=O)c21)CCS3)Nc1ccccc1F	i	0.13
COc1ccc(CCNS(=O)(=O)c2cn(C)nc2C)cc1OC	i	-0.67
COc1ccccc1/C=N/NC(=O)c1ccc(Cn2nc([N+](=O)[O-])cc2C)cc1	i	0.97
CCCCCNC(=O)c1cn(CC)c2cc(N3CCN(C)CC3)c(F)cc2c1=O	i	1.08
Cc1cc(Cl)c(OCCOCCN2CCN(C)CC2)c(Br)c1	i	1.62
COc1ccc(Cl)cc1NC(=O)/C=C/C(=O)O	i	-0.03
FC(F)(F)c1cc(Cl)c2nnc(C(F)(F)Cl)n2c1	i	-0.06
Cc1ccc(Cn2c(N3CCN(CCO)CC3)nc3c2c(=O)n(C)c(=O)n3C)cc1	i	-0.97
Cc1ccc2[nH]c3c(=O)n(CCN4CCNCC4)cnc3c2c1	i	0.6
CC1(C)CC(=O)C2=C(C1)N(Cc1ccco1)C(=O)C2(NC(=O)C1CCCCC1)C(F)(F)F (stereo not drawn)	i	2.28
N#Cc1ccc(C23CC4(C2)[C@H](CN(Cc2ccc(C(F)(F)F)cc2)[C@@H]4c2ccccc2)C3c2ccccc2)cc1 (stereo partly drawn)	i	-0.81
Cc1cccc(NC(=O)c2cccc(S(=O)(=O)Nc3ccccc3C(=O)O)c2)c1	i	2.17
Cc1cc2occ(CC(=O)N(C)CC(=O)Nc3c(C)cccc3C)c2cc1C	i	-0.45
NC(=S)N(c1ccccc1)c1ccccc1	i	1.72
CCCn1c(SCC(=O)Nc2cccc(S(=O)(=O)NC3=NCCCCC3)c2)nc2ccccc2c1=O	i	0.14
CCN1CCN(C(=O)C(C)Nc2ccc(OC)cc2OC)CC1 (stereo not drawn)	i	-0.29
O=C(Nc1ccncc1)c1ccc(NS(=O)(=O)c2ccc3[nH]c(=O)[nH]c3c2)cc1	i	-0.94
CCOc1ccc(C(=O)Nc2cccc(-n3cnnn3)c2)cc1OCC	i	1.14
O=C(NCCCN1CCN(c2ccccc2F)CC1)C1CCC(=O)N1C1CCCCC1 (stereo not drawn)	i	1.57
CCOc1ccccc1NS(=O)(=O)c1ccc(OC)c(OC)c1	i	-0.15
CCN(C(=O)CCN1C(=O)S/C(=C\c2ccccc2)C1=O)C1CCS(=O)(=O)C1 (stereo not drawn)	i	-0.05
CC(=O)c1cccc(NS(=O)(=O)c2ccc(-c3cnc(C4CC4)o3)cc2)c1	i	2.05
Going on with the list:
SMILES	KCNQ2 block	KCNQ2 block baseline
COc1ccccc1N1CCN(C2=CC(=O)CCC2)CC1	i	-0.1
N/C(=N\N=C\c1cccs1)SC1CC(=O)N(c2cccc([N+](=O)[O-])c2)C1=O (stereo not drawn)	i	0.84
Cc1ccc2ncccc2c1N	i	-2.01
COc1cc(NC(=O)COC(=O)c2nc3nc(C)cc(C)n3n2)cc(OC)c1	i	0.38
Cc1ccc(C)n1-c1ccc(C(=O)NCc2ccncc2)cc1	i	-0.02
Cn1nnc2cc(NC(=O)Nc3cccc(C(F)(F)F)c3)ccc21	i	2.43
C[C@@H](NC(=O)[C@@H]1Cc2ccccc2CN1)C(=O)NC1CCCCC1	i	-0.35
O=C(c1cccc(Cl)c1)c1nn(-c2ccccc2)c(=O)cc1C(F)(F)F	i	1.81
COc1cccc2cc(C(=O)C3=C(O)C(=O)N(Cc4ccco4)C3c3cccnc3)oc12 (stereo not drawn)	i	1.11
Cc1c(C(=O)NC(c2ccccn2)C(F)(F)F)oc2c(F)cccc12 (stereo not drawn)	i	-1.8
CCOC(=O)NCCc1c(C)nc2c(c(C)nn2C(C)(C)C)c1C	i	-1.41
O=C(CCn1c(=S)[nH]c2cc3c(cc2c1=O)OCO3)NCc1ccccc1Cl	i	-0.07
CCOC(=O)CCSc1nc(C)c2cc(C)c(C)cc2n1	i	1.38
CCOc1ccc(S(=O)(=O)N(C)CC(=O)NCc2ccco2)cc1	i	2.7
CC(C)(C)NC(=O)CSc1nccn1Cc1ccccc1	i	0.49
CC(=O)NNC(=O)CC(=O)Nc1nc(C23CC4CC(CC(C4)C2)C3)cs1	i	0.02
CC(C)c1ccc(N(C(=O)c2csnn2)C(C(=O)NC(C)(C)C)c2cccnc2)cc1 (stereo not drawn)	i	1.64
O=C(NCc1ccc(Cl)cc1)C1CCCN(c2ncnc3c2nc2n3CCCCC2)C1 (stereo not drawn)	i	0.04
CN(C)S(=O)(=O)c1ccc(NC(=O)c2ccccn2)cc1	i	-1.96
COc1cccc(N(CC(=O)Nc2cccnc2)S(C)(=O)=O)c1	i	-0.07
FC(F)(F)c1ccccc1NC(=S)N1CCCCCC1	i	-0.6
O=C(CSc1nncn1-c1cccnc1)N1CCOCC1	i	0.04
COc1cccc(CNS(=O)(=O)c2cc(-c3cc(C)no3)ccc2C(C)C)c1	i	-0.41
COc1ccc(-c2nnc(SCC(=O)Nc3cc(S(=O)(=O)N4CCCCC4)ccc3Cl)n2N)cc1	i	0.14
COc1cc(C(=O)NCC(C)C)c([N+](=O)[O-])cc1OC	i	1.37

Quoted from the listing.
KCNQ2 block baseline result of O=C(CSc1nncn1-c1cccnc1)N1CCOCC1 is entered as 0.04
KCNQ2 block baseline result of Cc1ccc2[nH]c3c(=O)n(CCN4CCNCC4)cnc3c2c1 is entered as 0.6

(further entries)
SMILES	KCNQ2 block	KCNQ2 block baseline
COc1ccc(NC(=O)c2c(Cl)cnn2C)c(C)c1	i	-1.06
O=C(COc1cccc2cccnc12)N/N=C1\SCC(=O)N1CCc1ccccc1	i	-0.02
CCc1ccc(NC(=O)CSc2ccc(-c3ccco3)nn2)cc1	i	-1.02
O=C(c1cc2c(=O)n3ccccc3nc2s1)N1CCN(Cc2ccc3c(c2)OCO3)CC1	i	1.9
Cc1c(/C=N/NC(=O)c2ccccc2O)c2ccccn2c1C(=O)c1ccc(F)cc1	i	-1.09
Cc1ccc(S(=O)(=O)NCC(=O)OCC(=O)Nc2cccc(S(=O)(=O)NC3=NCCCCC3)c2)cc1C	i	-0.28
CCOC(=O)c1sc(NC(=O)CSc2nc(-c3ccco3)cc(C(F)(F)F)n2)c(C(=O)OC)c1C	i	-0.14
O=C(Nc1nccs1)C1CCCN(S(=O)(=O)c2cccnc2)C1 (stereo not drawn)	i	1.81
COc1ccc(CC(=O)OCC(=O)NC(=O)NC23CC4CC(CC(C4)C2)C3)cc1	i	-0.04
CCN(CC)c1ccc(Nc2nc(Cl)ncc2Br)cc1	i	1.61
CC(=O)Nc1ccc(N(C(=O)c2ccccn2)C(C(=O)NC2CCCCC2)c2ccc(F)cc2)cc1 (stereo not drawn)	i	2.44
CCOC(=O)CSC1=C(C#N)C(c2ccco2)C(C(=O)Nc2cccc(C(F)(F)F)c2)=C(C)N1 (stereo not drawn)	-7.22*	-0.84*
COc1ccc(Cl)cc1-c1nc(SCC(=O)NCCN2C(=O)CSC2=O)n[nH]1	i	0.01
CC(=O)N(c1ccccc1)c1c(F)c(F)c(F)c(F)c1F	i	-1.89
O=C(COC(=O)c1ccc(F)cc1)Nc1ccccc1N1CCOCC1	i	0.21
Cc1ccc(C(=O)CCC(=O)OCC(=O)N(C)c2c(N)n(Cc3ccccc3)c(=O)[nH]c2=O)cc1	i	-0.77
CN(C(=S)Nc1ccc(SC(F)F)cc1)c1ccc(O)cc1	i	0.44
O=C(O)CCCN1C(=O)/C(=C/c2ccc(-c3nc4ccccc4s3)o2)SC1=S	i	2.36
CN(CC1CCOCC1)C(=O)CC1C(=O)NCCN1CC(c1ccccc1)c1ccccc1 (stereo not drawn)	-5.88*	-0.66*
O=C1CN(C(=O)/C=C/c2ccc(Br)cc2)CCN1	i	0.53
N#Cc1nc(Cc2ccccc2)oc1N1CCN(c2cccc(Cl)c2)CC1	i	-0.55
Cn1nc(-c2ccccc2)c(C(O)c2ccc(Cl)cc2)c1Cl (stereo not drawn)	i	-0.87
CCC(C)(C(=O)NC1CCCCC1)N(Cc1ccco1)C(=O)c1ccccn1 (stereo not drawn)	i	0.18
O=[N+]([O-])c1ccc(/C=C/C2=NN(c3ccccc3)C(c3ccco3)C2)o1 (stereo not drawn)	i	-0.16
O=C(Nc1nnc(-c2ccccc2)o1)Nc1ccc(F)cc1F	i	0.67
New compounds follow
SMILES	KCNQ2 block	KCNQ2 block baseline
CCNc1cccc2c1C(=O)N(C)C2=O	i	22.6
COc1cc(C)c(CNc2ccc(OC)c(OC)c2)cc1C	i	-0.2
CCCc1[nH]n(-c2ccc([N+](=O)[O-])cc2)c(=O)c1C=NCCCn1ccnc1	i	1.99
CC1=CC(=C(C#N)c2nc3ccccc3s2)C=C(C)N1c1ccc(F)cc1	i	5.01
COc1ccc(CCN=C(N)NS(=O)(=O)c2cccs2)cc1OC	i	1.47
CC1(C)SC(=S)N(/N=C/c2ccc(O)cc2)C1N(O)C(=O)Nc1ccc([N+](=O)[O-])cc1 (stereo not drawn)	-7.55*	1.63*
CCn1cc(C(=O)NCc2ccco2)c(=O)c2cc(S(=O)(=O)N3CCCC3)ccc21	i	1.31
CC1CCCC(C)N1C(=O)COC(=O)c1cc(S(=O)(=O)N2CCOCC2)ccc1Cl (stereo not drawn)	i	-1.17
COc1ccc(Nc2nc(-c3ccccc3O)nc3ccccc23)cc1	i	-1.84
CN(C)c1nc(SCCOC(=O)COc2ccc(Cl)cc2Cl)nc(N(C)C)n1	i	0.54
N#Cc1ccc(C(CC(=O)O)N2Cc3ccccc3C2=O)cc1 (stereo not drawn)	i	-0.16
COc1cc(C(=O)NCCC(=O)NCc2c(F)cc(F)cc2F)cc(OC)c1OC	i	-2.84
O=C(O)c1ccc(NC2=C(n3nnc4ccccc43)C(=O)c3ccccc3C2=O)cc1	i	-1.75
COc1ccc(N(CC(=O)N2CCN(c3ccccc3F)CC2)S(=O)(=O)c2ccc(C)cc2)cc1	i	0.57
Cc1cccc(C)c1NC(=O)C1=C(O)c2ccccc2N(C)S1(=O)=O	i	-1.54
O=C(CSc1ccc(-c2ccco2)nn1)Nc1ccc(F)cc1F	i	-0.92
COc1ccc(CCNC(=O)CSc2ncn[nH]2)cc1	i	0.3
COc1cccc(/C=N/NC(=O)C(C)Sc2ccccc2)c1 (stereo not drawn)	i	0.36
O=c1c2cccnc2n(-c2ccccc2)n1Cc1ccc(Cl)cc1	i	0.49
Cc1cc(C)c(-c2nc3ccccc3s2)[nH]1	i	-2.42
Cc1ccc(Cl)cc1-n1c(SCC(=O)NCCC2=CCCCC2)nc2n[nH]c(C)c2c1=N	i	0.06
C#CCn1c(O)c(N=NC(=O)CNC(=O)/C=C/c2ccccc2)c2ccccc21	i	1.46
CCc1ccc(NC(=O)CSc2nnc(-c3n[nH]c4ccccc34)n2-c2ccccc2)cc1	i	1.77
CCOC(=O)CNC(=O)Nc1cc(C(C)(C)C)nn1-c1ccccc1	i	-0.32
C#CC(=O)N(c1cc(OC)ccc1OC)C(C(=O)NC1CCCC1)c1cccs1 (stereo not drawn)	i	-1.98
The listing continues.
SMILES	KCNQ2 block	KCNQ2 block baseline
CCOc1cc(NC(=S)NCCOC)c(OCC)cc1NC(=O)c1ccco1	i	0.57
Cc1ccc(C(=O)NCC(=O)OCCOc2ccccc2Cl)cc1	i	2.77
Oc1ccc(N2CCN(Cc3cc4c(cc3Br)OCCO4)CC2)cc1	i	1.36
CCOC(=O)Nc1c(Cl)n(C)c(=O)n(C)c1=O	i	2.46
CCOc1ccc(Br)cc1S(=O)(=O)NCCN(C)C	i	-0.01
COc1cc(/C=C(\NC(C)=O)C(=O)N2CCCCC2)ccc1OC(C)=O	i	-0.1
Cc1sc(NC(=O)C2=COCCO2)c(C#N)c1C	i	0.35
CC(NC(=O)COc1ccc(/C=N/NC(=O)C(=O)Nc2ccccc2Br)cc1)c1ccccc1 (stereo not drawn)	i	-1.08
Cc1ccc(NC(=O)CSc2nc(=O)cc(N)n2CCc2ccccc2)cc1	i	1.29
COc1ccc(NC(=O)Nc2ccc(Cc3ccncc3)cc2)c(OC)c1	i	-2.83
O=C(C(=O)N1CCN(c2ccccc2F)CC1)c1cn(CC(=O)N2CCOCC2)c2ccccc12	i	0.04
Cc1ccc(S(=O)(=O)N(CC(=O)N2CCCCC2)c2cccc(C)c2)cc1	i	-1.67
COc1ccccc1NC(=O)CSc1nnc(-c2ccccn2)n1Cc1ccco1	i	0.08
CCCCCCN(C(=O)CCl)c1ccccc1	i	-0.27
O=C(CC1C(=O)N(c2ccccc2)C(=S)N1c1ccccc1)c1ccc(Br)cc1 (stereo not drawn)	-6.36*	0.08*
COc1cc(NC(=S)N2CCOCC2)c(OC)cc1Cl	i	0.11

Structural class: those above containing an NH in an aromatic ring (ten)
SMILES	KCNQ2 block	KCNQ2 block baseline
Cc1ccc2[nH]c3c(=O)n(CCN4CCNCC4)cnc3c2c1	i	0.6
O=C(Nc1ccncc1)c1ccc(NS(=O)(=O)c2ccc3[nH]c(=O)[nH]c3c2)cc1	i	-0.94
O=C(CCn1c(=S)[nH]c2cc3c(cc2c1=O)OCO3)NCc1ccccc1Cl	i	-0.07
COc1ccc(Cl)cc1-c1nc(SCC(=O)NCCN2C(=O)CSC2=O)n[nH]1	i	0.01
Cc1ccc(C(=O)CCC(=O)OCC(=O)N(C)c2c(N)n(Cc3ccccc3)c(=O)[nH]c2=O)cc1	i	-0.77
CCCc1[nH]n(-c2ccc([N+](=O)[O-])cc2)c(=O)c1C=NCCCn1ccnc1	i	1.99
COc1ccc(CCNC(=O)CSc2ncn[nH]2)cc1	i	0.3
Cc1cc(C)c(-c2nc3ccccc3s2)[nH]1	i	-2.42
Cc1ccc(Cl)cc1-n1c(SCC(=O)NCCC2=CCCCC2)nc2n[nH]c(C)c2c1=N	i	0.06
CCc1ccc(NC(=O)CSc2nnc(-c3n[nH]c4ccccc34)n2-c2ccccc2)cc1	i	1.77

A portion of the library (hit frequency here may not be typical).
